High-throughput results deposited in PubChem by SRMLSC.
H5N1 antiviral: MDCK cell protection from H5N1 avian flu | 0.07% of 96,000 active | cytopathic effect, luminescence, 72 h; stronger effect = higher value; no value below 0 was filed and about half of the inactive calls have no number; reference of the scale not given here | inhibition, % at 50 µM; in the data active means inhibition above about 25%
Starred values were filed as active, the others as inactive; i = inactive. A portion of the library; the hit share may differ from the screen's.

| SMILES | H5N1 antiviral |
| --- | --- |
| CC(C)CN1C(=O)c2ccc(NC(=O)c3ccccc3F)cc2C1=O | 1.5 |
| c1ccc(OCCCc2nc(-c3ccncc3)no2)cc1 | i |
| C1=C(CCNCC2CC2)CCCC1 | 1.2 |
| O=C(CSc1ncn[nH]1)Nc1cccc2ccccc12 | 1.9 |
| C=CCn1c(SCC(=O)Nc2ccccc2OC)nnc1-c1ccccn1 | i |
| CCc1ccc2c(c1)c(N=NC1=NC(=O)CS1)c(O)n2C | i |
| CC1(C)OC(=O)C(=CNc2cccc(C(=O)O)c2)C(=O)O1 | i |
| Cc1ccc(S(=O)(=O)/N=C(\c2ccccc2)N(C)S(=O)(=O)c2ccc(C)cc2)cc1 | 0.1 |
| COc1cccc(NC=C2C(=O)OC(C)(C)OC2=O)c1 | i |
| CCN(CCNC(=O)C1CCN(S(C)(=O)=O)CC1)c1ccccc1 | i |
| C=CCSc1nc(=O)n2cccc(C)c2n1 | 7.5 |
| Cc1ccc(N2CCN(C(=O)N3CCCC3)CC2)cc1C | i |
| O=C1C2C3C=CC(C3)C2C(=O)N1CCN1CCN(S(=O)(=O)c2ccc3ccccc3c2)CC1 (stereo unspecified) | 0.1 |
| CCCCn1c(SC(C)C(N)=O)nc2cc(C(=O)OC)ccc2c1=O (stereo unspecified) | 0.9 |
| CSc1[nH]c(=O)c(C(=O)O)cc1C#N | 0.5 |
| Cc1ccccc1N1CCN(C(=O)c2ccc(Oc3ccc(C(F)(F)F)cn3)cc2)CC1 | i |
| CCCN1C(=O)c2ccc(C(=O)Nc3cc(C)on3)cc2C1=O | 0.2 |
| Cc1cc2c(c(=O)n1Cc1ccco1)C(c1ccccc1)C(C#N)=C(N)O2 (stereo unspecified) | 1.5 |
| COc1ccccc1CNC(=O)C[n+]1ccccc1 | i |
| COc1ccc(S(=O)(=O)NCc2ccc3c(c2)OCO3)cc1C(=O)O | i |
| CCc1ccccc1N=C1SCC(=O)N1C | 0.1 |
| Nc1nc(C2CCCCC2)cs1 | 0.1 |
| CC(C)c1ccc(NC(=O)c2cnn(-c3ccccc3)c2NC(=O)c2ccco2)cc1 | i |
| COC(=O)c1cc2sc(Cl)cc2n1CC(=O)N1CCCc2ccccc21 | i |
| Cc1ccccc1/C=N/NC(=O)Cn1cnc([N+](=O)[O-])n1 | i |
| COc1ccc(-c2cc(=O)oc3cc4occ(C)c4cc23)cc1 | 1.6 |
| CCOC(=O)c1c(C)sc(Sc2ccc(Cl)cc2[N+](=O)[O-])c1OC | 0.5 |
| COc1ccccc1-n1c(SCC(=O)Nc2ccc(C)cc2)nc(O)cc1=O | 0.3 |
| C=CCn1c(SCC(=O)NC2CCS(=O)(=O)C2)nc2scc(C3CC3)c2c1=O (stereo unspecified) | 1.1 |
| CSc1nnc(-c2cc3c(s2)-c2ccccc2CC3)o1 | 2.8 |
| O=C(CSc1nnc(CNC(=O)c2cccs2)o1)Nc1cccc(C(F)(F)F)c1 | 3.0 |
| COc1ccc(C)cc1NC(=O)c1cc2cc3ccc(C)cc3nc2o1 | i |
| CCc1nnc(NS(=O)(=O)c2ccc(NC(=O)OC)cc2)s1 | 0.5 |
| COc1cccc(C2CC(c3cccs3)=NN2C(=S)Nc2ccccc2)c1OC (stereo unspecified) | 0.1 |
| CC1(c2ccccc2Cl)NC(=O)N(CC(=O)NC(=O)NCc2ccco2)C1=O (stereo unspecified) | i |
| O=C1C=C(NCc2ccco2)CCC1 | i |
| O=C(CCN1C(=O)c2ccccc2C1=O)Nc1ccc2c(c1)OCCO2 | 0.4 |
| Cc1ccc2c(c1)N(S(=O)(=O)c1ccc(F)cc1)C(C(C)(C)C)CO2 (stereo unspecified) | 1.4 |
| O=C(O)COc1ccc(Br)cc1/C=C1/SC(=O)N(CC(=O)N2CCCC2)C1=O | i |
| CC(NC(=O)OCc1ccccc1)C(=O)N1CC(O)CC1C(=O)O (stereo unspecified) | i |
| c1ccc(-n2nnc3cnccc32)cc1 | 0.3 |
| CC(C)Oc1ccc(CNC(=O)CC(c2ccccc2)c2cc(Cl)ccc2O)cc1 (stereo unspecified) | 4.6 |
| O=S(=O)([N-]c1nc2ccccc2nc1-[n+]1ccccc1)c1ccc(Cl)cc1 | i |
| Cc1nc(NC2=NCN(CCCN3CCOCC3)CN2)nc2c(C)cccc12 | i |
| c1ccc2c(c1)NC1(CCCC1)n1c-2nc2ccccc21 | 0.7 |
| CC(=O)COc1cc(C)cc2oc(=O)c(C)c(C)c12 | 0.1 |
| Cc1ccc(OCc2nc(C#N)c(NCCCn3ccnc3)o2)cc1 | 1.5 |
| O=C(NCCCN1CCOCC1)c1cc2c(s1)CSC2 | 1.1 |
| COc1ccc2c(CSc3nc4nc(C)cc(C)n4n3)cc(=O)oc2c1 | 3.3 |
| COc1ccc(C(=O)NCC23C=CC(O2)C2C(=O)N(Cc4ccccc4)C(=O)C23)cc1 (stereo unspecified) | i |
| CC1CCCC(NC(=O)C2CCN(S(=O)(=O)N3CCOCC3)CC2)C1C (stereo unspecified) | 0.5 |
| CCOc1ccccc1N1C(=O)NC(=O)/C(=C/c2ccc3c4c(cccc24)CC3)C1=O | 1.9 |
| CCOC(=O)NC1(C(F)(F)F)NC(=O)N(Cc2ccco2)C1=O (stereo unspecified) | i |
| COc1ccc(/C=N/Nc2nc(Nc3ccccc3)nc(N3CCCCC3)n2)cc1OC | i |
| CNc1nc2c(C)cccn2c(=O)c1C=NCc1ccccc1 | i |
| COc1ccc(N2C(=O)C3C4C=CC(C4)C3C2=O)nn1 (stereo unspecified) | 0.3 |
| CCc1cc2c(=O)c(-c3nc4ccccc4n3C)c(C(C)C)oc2c(CN2CCN(C)CC2)c1O | 3.4 |
| CCCc1cc(C(=O)Nc2sc(C(C)=O)c(C)c2C(=O)OCC)no1 | 0.3 |
| O=C(Cn1c(=S)[nH]c2ccccc2c1=O)N1CCC2(CC1)OCCO2 | i |
| CC1(C)CC(=O)C2=C(C1)N(c1cccc(O)c1)C1=C(C2)C(=O)CC(C)(C)C1 | i |

Following part
| SMILES | H5N1 antiviral |
| --- | --- |
| CCc1cc2c(=O)c(-c3cscn3)coc2c(CN(C)C)c1O | i |
| CCCCOC(=O)Nc1nnc(COc2ccccc2)s1 | i |
| Cc1ccc(C)c(NC(=S)NC(NC(=O)N(C)C)C(Cl)(Cl)Cl)c1 (stereo unspecified) | 1.0 |
| Cc1ccccc1CSCCNC(=O)CSCc1ccc([N+](=O)[O-])cc1 | 0.5 |
| C(=N\c1nccs1)/c1c[nH]c2ccccc12 | i |
| Cc1ccc(NC(=S)NC(NC(=O)c2ccco2)C(Cl)(Cl)Cl)cc1 (stereo unspecified) | i |
| COC(=O)C1=C(N)OC2=C(C(=O)CC(C)(C)C2)C1c1ccoc1 (stereo unspecified) | 0.6 |
| CCN1CCCC1CNC(=O)Cn1cnc2ccc(S(=O)(=O)N3CCC(C)CC3)cc2c1=O (stereo unspecified) | 0.7 |
| COc1ccc(-n2c(C)c(C(C)=O)c3cc(O)ccc32)cc1 | 1.3 |
| NC(=O)c1ccc(NC(=O)c2ccc(CN3CCOCC3)cc2)cc1 | i |
| c1csc(Cc2nc3ccccc3[nH]2)c1 | 0.6 |
| Cn1c(=O)c(NCCc2ccccc2)c2c3c(cccc31)C(=O)c1ccccc1-2 | 1.7 |
| COc1cccc(N2CC(C(=O)Nc3c(C)cccc3C)CC2=O)c1 (stereo unspecified) | i |
| Cc1ccc(-c2nnn(CC(=O)N3CCN(c4nc5ccccc5s4)CC3)n2)cc1 | 1.6 |
| CCCCOC(=O)Nc1cc(C(=O)OC)ccc1C(=O)OC | i |
| C/C(=N\O)c1ccc2[nH]ccc2c1 | 0.8 |
| Cc1noc(C)c1COC(=O)Cc1ccc(Cl)c(Cl)c1 | i |
| C=CCNS(=O)(=O)c1ccc(OC)c(C)c1 | i |
| Cc1ccccc1C1C(C#N)=C2N=C(N)c3c(sc4c3CCCCC4)N2C2=C1C(=O)CCC2 (stereo unspecified) | i |
| O=C1C2C(C(=O)N1Cc1ccco1)C1C=CC2C12CC2 (stereo unspecified) | 0.4 |
| CC1CCCN(CC(O)COc2ccc(Cl)cc2)C1 (stereo unspecified) | i |
| Cc1cccc(NCc2ccccc2O)c1C | i |
| O=[N+]([O-])c1ccc(N/N=C/c2cn(-c3ccccc3)nc2-c2ccccc2)cc1 | 0.3 |
| Cc1ccc(Cn2c(SCc3cccnc3)nc3c2c(=O)n(C)c(=O)n3C)cc1 | 2.0 |
| CCc1ccccc1N1CSC2=C(C#N)C(c3ccccc3F)CC(=O)N2C1 (stereo unspecified) | i |
| Cc1ccc(S(=O)(=O)O)c(C)c1N1CCCC1=O | 1.1 |
| O=S(=O)(c1ccc(N2CCC(c3ccc(Cl)cc3)=N2)cc1)N(CCO)CCO | i |
| Cc1cc(NCCN(C)C)n2nc(-c3cccs3)cc2n1 | i |
| CN(C)c1ccc(/C(=N\O)c2ccccc2)cc1 | i |
| O=C(CNC(=O)c1ccc([N+](=O)[O-])cc1)c1ccccc1 | 0.4 |

Reformatted with each value named: part of the list above.
COC(=O)C1=C(N)OC2=C(C(=O)CC(C)(C)C2)C1c1ccoc1 (stereo unspecified)
  H5N1 antiviral: 0.6
O=S(=O)(c1ccc(N2CCC(c3ccc(Cl)cc3)=N2)cc1)N(CCO)CCO
  H5N1 antiviral: i
Cc1cccc(NCc2ccccc2O)c1C
  H5N1 antiviral: i
Cc1ccc(NC(=S)NC(NC(=O)c2ccco2)C(Cl)(Cl)Cl)cc1 (stereo unspecified)
  H5N1 antiviral: i

(more compounds)
| SMILES | H5N1 antiviral |
| --- | --- |
| C=CCNc1nc(N)c(C(=O)Nc2cc(C)on2)s1 | 1.1 |
| CC(C)[C@H](NC(=O)c1ccccc1)C(=O)OCC(=O)c1ccc2c(c1)NC(=O)CO2 | i |
| COc1ccccc1-c1cc(C(=O)Nc2cc(C)n(Cc3ccc(Cl)cc3)n2)no1 | i |
| CN1CCN(NC(=O)c2cc([N+](=O)[O-])cc([N+](=O)[O-])c2)CC1 | 0.1 |
| CNC(=O)/C(=N\O)c1ccccc1 | i |
| CC1=CC(C)(C)Nc2ccc(OC(=O)CN3C(=O)c4cccc5cccc(c45)C3=O)cc21 | 2.6 |
| Cc1cc(C(N)=O)c2cc(Br)ccc2n1 | 0.3 |
| Cc1cc(C)nc(NS(=O)(=O)c2ccc(NS(=O)(=O)c3ccccc3)cc2)n1 | 0.4 |
| O=C(NCc1ccco1)C1CCN(S(=O)(=O)N2CCC3(CC2)OCCO3)CC1 | i |
| O=C(N/N=C/c1ccncc1)c1ccccc1 | 1.8 |
| CCOC(=O)CCc1nc2ccccc2[nH]1 | i |
| CCOC(=O)N1CCC(NCCNC(=O)c2ccc(Cl)cc2)CC1 | i |
| CC(C)(C)Nc1c(N)c(=O)oc2ccccc12 | i |
| O=C(OC1CCOC1=O)c1cc(-c2ccccc2)nc2ccccc12 (stereo unspecified) | i |
| Cc1nn(Cc2c(F)c(F)c(F)c(F)c2F)c(C)c1NC(=O)c1cccc(COc2ccccc2Cl)c1 | 0.2 |
| Cc1ccc(C(=O)Nc2ncc(Cc3ccc(F)cc3)s2)o1 | i |
| O=C(N1CCOCC1)N1CCC(c2nc(-c3ccc(S(=O)(=O)N4CCOCC4)cc3)no2)CC1 | i |
| O=C(N/N=C/c1ccc(OCC(=O)N2CCCCC2)cc1)c1ccccc1 | i |
| Cc1n[nH]c(C)c1S(=O)(=O)N1CCN(c2ccccn2)CC1 | 1.1 |
| COc1ccc(CC(=O)NCC2(c3ccc(OC)c(OC)c3)CCOCC2)cc1 | 1.6 |
| N#CC1=C(N)C(C#N)(C#N)C(c2ccc[nH]2)C2CCCC=C12 (stereo unspecified) | 1.1 |
| NC(=O)c1ccccc1N/C=C/C(=O)c1ccco1 | 0.1 |
| COC(=O)c1c(NC(=O)c2nc3ccccc3s2)sc2c1CCN(C(C)=O)C2 | i |
| COc1ccc(NCCNc2ccc(OC)cc2)cc1 | i |
| CC(=O)Nc1ccccc1C(=O)C(=O)Nc1ccc(F)cc1 | i |
| CCn1c(SCC(=O)Nc2nc(C)cs2)nnc1-c1ccco1 | 2.0 |
| O=C(c1ccccc1)c1ccncc1 | i |
| Cc1ccc(N(O)C(=O)OCCNC(=O)Nc2ccccc2)cc1 | 0.8 |
| CCCCCCc1nnc(NC(=O)OCC)s1 | 0.5 |
| O=C(c1ccco1)N1CCN(c2ccc(Cl)cc2)CC1 | i |
| COc1cc(C(C(=O)NC(C)(C)C)N(C(=O)CNC(=O)c2cccs2)c2ccccc2)cc(OC)c1OC (stereo unspecified) | 1.7 |
| CC(=O)Nn1cnc2c(c1=O)C1(CCCCC1)Cc1ccccc1-2 | 0.2 |
| Cc1ccc(-n2nnnc2SCC(=O)Nc2sc(C)c(C)c2C#N)cc1C | 0.7 |
| CN1C(=O)C(=Cc2ccccc2Oc2ccc(Cl)c(F)c2)C(=O)N(C)C1=O | 0.1 |
| Cc1c(Cl)cccc1NC(=O)CCN1CCCC(C)C1 (stereo unspecified) | i |
| O=c1[nH]c2ccc(S(=O)(=O)N3CCN(c4ccccc4F)CC3)cc2s1 | 1.3 |
| c1ccc(-c2noc(C34CC5CC(CC(C5)C3)C4)n2)cc1 | i |
| Cn1cccc1C(=O)NC(=O)COC(=O)Cc1coc2ccc3ccccc3c12 | i |
| CCOc1cccc(N2C(=O)CC(NCc3ccc(S(N)(=O)=O)cc3)C2=O)c1 (stereo unspecified) | 0.3 |
| CCOc1ccc(N2Cc3ncccc3C2=O)cc1 | 0.7 |
| COc1cc2cc(C(c3nnnn3C(C)(C)C)N3CCc4ccccc4C3)c(=O)[nH]c2cc1OC (stereo unspecified) | i |
| O=C(CSc1ccc2nnc(-c3ccccn3)n2n1)N1CCN(c2ccccc2)CC1 | 4.4 |
| Cc1noc(C)c1COC(=O)CCCc1c[nH]c2ccccc12 | i |
| Cc1cc(C)nc(N2CCC(C(=O)NCCc3ccccc3)CC2)n1 | 1.2 |
| Cc1ccc(C)c2[nH]c(=O)c(CCNC(=O)CC(C)(C)C)cc12 | i |
| CC(C)c1ccc(NS(=O)(=O)c2ccc3[nH]cc(C(=O)N4CCC(C(N)=O)CC4)c(=O)c3c2)cc1 | 0.6 |
| CC(Cl)C(=O)c1c(N)n(C)c(=O)n(C)c1=O (stereo unspecified) | 0.1 |
